Tg IFNy HTS: T. gondii growth inhibition under IFN-gamma. Toxoplasma gondii growth in IFN-gamma-treated host cells; stronger effect = lower value; reference of the scale not given here. activity change, negative = inhibition, %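 (about 20 µM by stock and volumes)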. actives 3.8% (n = 69,000). AID 1259416;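 active = below -70%; inconclusive = fit judged invalid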;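 note: host cells are HeLa cells infected with Toxoplasma gondii; parasite growth read as luciferase light; one replicate is shown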
The depositor's hits bear a star; i = inactive; u = inconclusive.

SMILES	Tg IFNy HTS
CC(C)NC(=O)Nc1ccc2c(c1)C(=O)N([C@@H](C)CO)C[C@H](C)[C@H](CN(C)C(=O)C1CCCCC1)OCCCC[C@H](C)O2	u
COCCN(C)CC(=O)N1CCn2c(C(N)=O)cnc2C1	4
Cc1sc(NC(=O)c2cccn3nnnc23)nc1-c1cc2ccccc2oc1=O	-2
Cc1nc(NC(=S)NC(=O)c2ccccc2)sc1C(C)(C)C	-43
Cc1cc(S(=O)(=O)NCCc2sc(-c3ccc(Cl)cc3)nc2C)ccc1F	62
CCn1c(C2CCCN(C(=O)c3cc(C(C)C)oc3C)C2)n[nH]c1=O (stereo not drawn)	3
COc1ccc(C[C@H]2CCn3nncc3COC[C@@H](CC(C)C)NC2=O)cc1	-42
Cc1cc(C)n(CC(C)NCc2nncn2C2CCCCC2)n1 (stereo not drawn)	2
CCOC(=O)C(=O)Nc1ccc(-c2nc(-c3cc(C)ccc3C)co2)cc1	8
CC(=O)Nc1c(O)nc(SCc2ccc(Cl)cc2)[nH]c1=O	11
C[C@@H]1CCCCO[C@H](CN(C)S(=O)(=O)c2ccccc2)[C@@H](C)CN([C@@H](C)CO)C(=O)c2cc(NC(=O)Nc3ccc4c(c3)OCO4)ccc2O1	i
NC(=O)c1cnc2n1CCN(C(=O)c1scc3c1OCCO3)C2	-2

Five entries from above in a different format.
| mol | Tg IFNy HTS |
| --- | --- |
| Cc1sc(NC(=O)c2cccn3nnnc23)nc1-c1cc2ccccc2oc1=O | -2 |
| CC(=O)Nc1c(O)nc(SCc2ccc(Cl)cc2)[nH]c1=O | 11 |
| CCOC(=O)C(=O)Nc1ccc(-c2nc(-c3cc(C)ccc3C)co2)cc1 | 8 |
| NC(=O)c1cnc2n1CCN(C(=O)c1scc3c1OCCO3)C2 | -2 |
| COCCN(C)CC(=O)N1CCn2c(C(N)=O)cnc2C1 | 4 |

Further structures.
SMILES	Tg IFNy HTS
O=C(Nc1ccccc1)N(Cc1ccc(Cl)cc1)Cc1nc2ccccc2c(=O)[nH]1	-46
CC(C)c1cc(C(=O)Nc2ccc(OCC(=O)N3CCCCC3)cc2)nc2ncnn12	-22
Cc1cnc(N)c(-c2ccc(S(C)(=O)=O)cc2)c1	3
CCn1ncnc1CN1CCC(c2[nH]ncc2Cc2ccccc2)CC1	-13
CC(=O)N1CCO[C@]2(CCC[C@H]2COc2ccccn2)C1	-7
COc1ccc(CCC(=O)N2CCC(n3nnc4cc(F)ccc4c3=O)CC2)cc1	25
C=CCN1CCO[C@H]2CN(S(=O)(=O)c3cn(C)cn3)CC[C@@H]2C1	-3
CN(Cc1cc(-c2ccncc2)no1)Cc1cc(F)ccc1-n1cccn1	-43
COc1ccc2c3c(n(C)c2c1)[C@@H](CO)N(C(=O)Nc1ccc(F)cc1)CC31CCN(C(=O)Nc2ccc(F)cc2F)CC1	53
COCCN1C2(CCN(C(=O)N3CCOCC3)C2)c2ccccc2S1(=O)=O (stereo not drawn)	5
CN(C)S(=O)(=O)Oc1ccc(-c2noc(-c3ccc(OC(F)(F)F)cc3)n2)cc1	9
CC(C)c1cc(C(C)C)c(S(=O)(=O)Nc2ccc(O)cc2)c(C(C)C)c1	-75*
CCN1CCC2(CC1)CC(Nc1ncc(F)cn1)c1ccccc1O2 (stereo not drawn)	1
Cn1nc(C2CCN(C(=O)N3CCCC3)CC2)n(Cc2ccccc2)c1=O	2
CCOc1cccc(-c2noc(-c3c(O)c4cc(F)ccc4n(CC)c3=O)n2)c1	57
Cc1noc(C)c1S(=O)(=O)N(C)C[C@@H]1OCCCC[C@@H](C)Oc2ccc(N(C)C)cc2C(=O)N([C@H](C)CO)C[C@H]1C	374
O=C(c1ccco1)N1CCN(Cc2nc(Cc3cccc(C(F)(F)F)c3)no2)CC1	-7
Cc1ccc(C)c(-c2coc(-c3ccc(NC(=O)c4ccccc4)cc3)n2)c1	-28
Cc1ccsc1[C@@H]1CCN(C(=O)c2cccc(=O)[nH]2)C[C@H]1O	1
CCOc1ccccc1-c1nnc(NC(=O)c2ccc3c(c2)ncn3C)s1	-4
O=S1(=O)c2ccccc2C2(CCN(Cc3ccncc3)C2)N1Cc1ccc(F)cc1 (stereo not drawn)	-19
Cc1ccc(-n2ncc3c(NCCCN4CCCC4=O)ncnc32)c(C)c1	14
Cc1cc(C)n(-c2cccc(CN(C)C(=O)Cc3ccccc3O)c2)n1	-9
C=CCNC(=S)N1CCc2c([nH]c3ccccc23)C1C (stereo not drawn)	8
CCOc1ccc(C2c3[nH]c4ccccc4c3CCN2C(=O)c2ccc(F)cc2)cc1 (stereo not drawn)	-89*
c1cc(-c2nc3c(c(NC4COC5(CCCCC5)C4)n2)CNC3)ccn1 (stereo not drawn)	-9
O[C@@H]1[C@H](O)[C@@H](CCl)O[C@H]1n1cnc2c(NC3CC4CCC3C4)ncnc21 (stereo partly drawn)	9
Fc1ccc(CN2CCC3(CC2)CC(c2cccnc2)CO3)cc1 (stereo not drawn)	-8
Cc1cc(C)cc(N2CCN(C(=O)C3CCOC3)CC2=O)c1 (stereo not drawn)	2
CC(=O)N1CCN(c2ccc3ccc(C(=O)NCc4cccs4)cn23)CC1	337
Cc1cc(C(=O)Nc2ccc3c(c2)C(=O)N(C)[C@@H]2CC[C@H](CC(=O)O)O[C@H]2CO3)no1	-15
CCCNC(=O)CN1C(=O)CCc2cc(S(=O)(=O)N3CCC(C)CC3)ccc21	14
N#C[C@H]1[C@@H](c2ccc(C3=CCCC3)cc2)[C@H](CO)N1C(=O)c1ccccn1	4
NS(=O)(=O)c1ccc(CCNC(=O)C2CCCN2C(=O)OCc2ccccc2)cc1 (stereo not drawn)	31
COCC(=O)N1CCCn2nnc(COCC3CC3)c2C1	-14
COc1ccc(CN2C[C@H](O)COC[C@@H]3O[C@H](CC(=O)N(C)C)CC[C@H]32)cc1	19
COc1ccc2c3c(n(C)c2c1)[C@H](CO)N(C(=O)c1ccccc1)CC31CCN(C(=O)c2ccccc2)CC1	-59
CO[C@@H](C(=O)N(C)C[C@@H]1OCc2ccccc2-c2ccccc2C(=O)N([C@H](C)CO)C[C@@H]1C)c1ccccc1	30
Cc1nc(-c2cccc(F)c2)sc1CCNC(=O)c1ccc(C(F)(F)F)cc1	-90*
O=C(c1ccccn1)N1CC[C@@H]2[C@H](CO)Nc3ccc(C#Cc4cccnc4)cc3[C@@H]21	-7
OCC(Nc1nc(-c2ccccn2)nc2c1CCNC2)c1ccc(F)cc1 (stereo not drawn)	4
CN(C)S(=O)(=O)c1ccc2c(c1)cc(C(=O)NCc1cccnc1)n2Cc1ccncc1	117
C[C@H]1CN([C@@H](C)CO)C(=O)c2c(c3ccccc3n2C)-c2ccccc2CO[C@H]1CN(C)S(=O)(=O)c1ccc([N+](=O)[O-])cc1	-64
O=C(Nc1cccnc1)[C@@H]1C[C@H]2CCN(c3ncccn3)C[C@@H]2O1	3
NC(CC(F)C(=O)O)C(=O)O (stereo not drawn)	9
O=C(C[C@@H]1CC[C@@H]2[C@H](COC[C@@H](O)CN2S(=O)(=O)c2ccc(F)cc2)O1)NCCN1CCCCC1	-10
O=C(c1cnc[nH]1)N1CCC2(CC(=O)N(c3ccccc3)C2)C1 (stereo not drawn)	-3
COc1ccccc1C(=O)N1C[C@@H]2[C@H](c3ccccc31)[C@@H](CO)N2C(=O)Cc1ccccc1	4
COc1ncc(C(=O)N2CCCN(Cc3cccs3)CC2)cn1	-44
O=C(C1CCCO1)N1CCN(c2nc(-c3cccnc3)nc3c2CNC3)CC1 (stereo not drawn)	1
CCOC(=O)CNC(=O)N1CCc2onc(-c3cccc4ccccc34)c2C1	8
Nc1ncc(-c2ccc(F)cc2)c(-c2cnn(Cc3ccccc3)c2)n1	-41
CCCCS(=O)(=O)N1CCC2(CC1)COCCN(Cc1ccncc1)C2	-5
COc1cccc(-c2cc(C(=O)N3CCCC(C(NC(C)=O)c4nccs4)C3)no2)c1 (stereo not drawn)	56
CCN1CCOC(CCNS(=O)(=O)c2cnn(CC)c2)C1 (stereo not drawn)	1
Cc1csc([C@H]2C[C@H]3CCN(C(=O)c4cnoc4C)C[C@@H]3O2)n1	2
C/C=C/c1cnc(-c2cccnc2)nc1C1CCN(C(=O)c2ccc(Cl)cc2)CC1	-31
CCCCC(C=O)NC(=O)C(CC(C)C)NC(=O)OCc1ccccc1 (stereo not drawn)	-20
C=CCn1c(=O)c(C(=O)NCc2ccc(F)cc2)c(O)c2ccccc21	173
COc1ccc(-c2nc(NCCC(C)C)c3ccccc3n2)cc1	-61

Pulled by structure from the list above (5):
SMILES	Tg IFNy HTS
COc1ccccc1C(=O)N1C[C@@H]2[C@H](c3ccccc31)[C@@H](CO)N2C(=O)Cc1ccccc1	4
Cc1nc(NC(=S)NC(=O)c2ccccc2)sc1C(C)(C)C	-43
COc1ccc2c3c(n(C)c2c1)[C@H](CO)N(C(=O)c1ccccc1)CC31CCN(C(=O)c2ccccc2)CC1	-59
CC(C)c1cc(C(=O)Nc2ccc(OCC(=O)N3CCCCC3)cc2)nc2ncnn12	-22
O=C(c1cnc[nH]1)N1CCC2(CC(=O)N(c3ccccc3)C2)C1 (stereo not drawn)	-3

Next section:
SMILES	Tg IFNy HTS
CCC(CC)c1nnc(NC(=O)C2CC(=O)N(CCc3c[nH]c4ccc(C)cc34)C2)s1 (stereo not drawn)	8
CCOc1ccc(-c2nc(CN3CCN(C(=O)NC4CCCCC4)CC3)c(C)o2)cc1	4
Cc1c(C)c(C)c(CSCc2c(C)c(C)c(C)c(C)c2C)c(C)c1C	17
COc1ccc(N(C)c2ccc3ccc(C(=O)CCN4CCOCC4)cn23)cc1	7
Cn1cc(CCNC(=O)COc2ccccn2)c2cc(Cl)ccc21	16
O=C(C1CCOCC1)N1CCCC2(CC(Nc3ncccn3)CO2)C1 (stereo not drawn)	-2
Cc1nc2c(c(=O)[nH]1)CCN(CC1=Cc3ccccc3OC1)C2	37
Cn1nc(C(=O)NCC2CCC(c3nnc(-c4ccncc4)o3)CC2)ccc1=O (stereo not drawn)	25
CC(=O)Nc1ccc(Oc2cncc(Cl)c2)nc1	-42
CC(=O)Nc1cccc2c1c(Sc1ccc(Cl)cc1)c(C)n2CC(=O)O	18
CCc1ccccc1NC(=O)N1CCC(c2nc(C(=O)N3CCOCC3)c(C)o2)CC1	9
Cc1ccc(NC(=O)CSc2nnnn2C)cc1	35
NNC(=O)c1cc(O)c(O)c(O)c1	2
CC(C)n1nc(CNc2ncccn2)c2c1CN(C)CC2	1
N#C[C@H]1[C@H](c2ccccc2)[C@H](CO)N1C(=O)c1ccccc1F	12
Cc1ccc(S(=O)(=O)NCC[C@@H]2CC[C@@H](NC(=O)c3cccnc3)[C@@H](CO)O2)cc1	-6
CCc1cccc(NC(=O)CN2C(=O)CCc3cc(S(=O)(=O)N4CCCCC4C)ccc32)c1 (stereo not drawn)	-77*
Cc1ncc(CN2CC=CC[C@@]3(C(=O)N4CCN(C)CC4)CCC[C@@H]23)cn1	100
Fc1ccc(-c2ccc(Nc3cccc(F)c3)nn2)cc1	0
c1ccc(COC2CCCN(Cc3ccncc3)C2)nc1 (stereo not drawn)	6
C[C@@H]1CN([C@H](C)CO)C(=O)c2cc(NS(=O)(=O)c3ccc(Cl)cc3)ccc2O[C@@H](C)CCCCO[C@@H]1CN(C)Cc1ccncc1	-112*
Cc1ccc2c(c1)NC1(CCN(S(=O)(=O)c3cccc(F)c3)CC1)c1cccn1-2	30
COc1cccc(-n2c(=O)c(C(=O)NCCc3cccs3)c(O)c3cccnc32)c1	30
COCCC(=O)NC1CCC2(CCC(=O)N2Cc2ccncc2)CC1 (stereo not drawn)	1
CCCN(Cc1ccccc1F)C(=O)c1ccc[nH]1	-3
Cn1cnc2cc(C(=O)Nc3ccc(-c4csc(N5CCOCC5)n4)cc3)ccc21	20
CCCCC(C)(C)[C@H](O)/C=C/[C@H]1[C@H](O)CC(=O)[C@@H]1C/C=C\CCCC(=O)O	13
Cc1cccc(CN2CCC3C2CC(=O)N3CCN2CCOCC2)c1 (stereo not drawn)	-38
CCOC(=O)CSc1nc2ccccc2n1CC(=O)Nc1ccccc1-c1ccccc1	-15
CCOC(=O)C(Cc1ccccc1)NC(=O)Nc1ccccc1 (stereo not drawn)	1
Cc1cncc(C(=O)N2CCO[C@H]3[C@@H](Oc4cccnc4)CC[C@H]32)c1	5
Cc1ccc(NC(=O)c2ccccc2C)c(NC(=O)CCCn2cncn2)c1	106
C[C@H](O)C#Cc1ccc([C@@H]2[C@@H](CO)N3CCCCN(C(=O)c4ccc5c(c4)OCO5)C[C@H]23)cc1	4
COCCO[C@@H]1CCN(S(=O)(=O)C2CC2)[C@H]1Cc1cnn(C)c1	7
CCOC(=O)NC(Nc1ccc(C(C)C)cc1)(C(F)(F)F)C(F)(F)F	-50
CC(=O)CCc1oc2ccc(C)cc2c1-c1ccc(C)o1	-5

A draw from above in order of SMILES length, largest number first.
SMILES	Tg IFNy HTS
Cc1cncc(C(=O)N2CCO[C@H]3[C@@H](Oc4cccnc4)CC[C@H]32)c1	5
CCOC(=O)CSc1nc2ccccc2n1CC(=O)Nc1ccccc1-c1ccccc1	-15
CC(=O)CCc1oc2ccc(C)cc2c1-c1ccc(C)o1	-5

(cont.)
SMILES	Tg IFNy HTS
O=C(O)c1ccc(C2CCN(C(=O)C3CCOCC3)C2)cc1 (stereo not drawn)	-1
C[C@H](CO)N1C[C@H](C)[C@H](CN(C)C(=O)CCCN(C)C)OCCCC[C@H](C)Oc2ccc(NS(=O)(=O)c3ccc(Cl)cc3)cc2C1=O	-41
Cc1ccc(CC(=O)Nc2ccc(-c3nc(Cn4nc(C)c(C)c4C)c(C)o3)cc2)cc1	109
CC(C)Cc1cc(C(=O)N2CCC3(CCCN(C)C3=O)C2)nc(N)n1 (stereo not drawn)	0
COc1ccc(-c2nnn(CC(=O)Nc3ccc(C)cc3)n2)cc1	-97*
C/C=C/c1ccc([C@H]2[C@@H](CO)N(C(=O)C3CC3)[C@H]2CNC(=O)NC(C)C)cc1	4
CCC(=O)Nc1ccc2c(c1)C(=O)N(C)C[C@@H](OC)[C@@H](C)CN(Cc1nccs1)[C@H](C)CO2	99
C=CCN1Cc2ccccc2C2(CCN(Cc3cnn(C)c3)CC2)C1	-24

These rows are one share of the data; the hit share may differ from the screen's.
